CtBP-E1A blk – blocks the CtBP interaction with E1A. activity change, % (no concentration beside the values). 340,000 tested, 0.49% active. AID 651724. AlphaScreen GST-E1A/His-CtBP binding, 1536-well; active compounds read low; control for the full effect not named in the record; in the data active means activity change below about -65%; inconclusive means about -30% to -65%; inactive means above about -30%; further: on the % scale 0 is the no-effect control and ±100 the full control effect
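In 5 uL wells, 23 nL compound meets equimolar GST-E1A and His-CtBP (5X stock 125 nM each) for 2 h, 37 °C. Beads (5X, 50 ug/mL) then 1 h, 37 °C, dark.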
PINK1 modulator – modulators of PINK1 expression | PINK1 immunofluorescence, high-content cytometry, 24 h | Potency, µM (top dose mostly 76.6 µM), without a hit: at the top dose activation (PINK1 increase), actives largely listed as activators | 410,000 tested, 0.2% active; active = well fitted activation curve with a large enough effect; inconclusive = small, poorly fitted or top-dose-only effect; inactive = flat fitted curve, though single readings scatter; cell line not stated here;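 further: potency means the concentration at half of the fitted maximal effect; % of control where 0% means no effect; nearly all actives have a fitted effect of over 65% in size; a mitochondrial uncoupler was the plate control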
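Compound titrations (5 concentrations, 24 h) on a stable cell line; DMSO and CCCP controls. Endpoint: fixed-cell PINK1 immunofluorescence with mitochondrial, cell and nuclear markers, scanned by microplate cytometer.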
Six1-Eya2 inh – inhibitors of human Six1/Eya2 interaction. Q15475+O00167. activity change, % (test concentration not listed). 360,000 tested, 0.56% active. AlphaScreen GST-Six1/His-Eya2 binding, biochemical; active compounds read low; control for the full effect not named in the record; in the data active = activity change below about -65%; inconclusive = about -30% to -65%; inactive = above about -30%; further: on the % scale 0 is the no-effect control and ±100 the full control effect
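Homogeneous AlphaScreen proximity assay pairing GST-Six1 with His-tagged Eya2 (added as 5X mix: 250 nM and 500 nM) in 50 mM Tris pH 8.0, 300 mM NaCl, 1 mM TCEP. Glutathione donor and nickel acceptor beads; 1 h, 37 °C, dark.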
TRPML1 blocker – blocks the human TRPML1 channel; Q9GZU1; TRPML1-inducible cells, Ca2+ dye fluorescence, FDSS; active compounds read low; inhibition of EC80 agonist-evoked calcium signal; activity change, negative = inhibition, % (no concentration beside the values); 390,000 tested, 0.02% active; in the data active means activity change below about -50%; inconclusive means about -30% to -50%; inactive means above about -30%;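 further: stimulus is agonist 54-4 at its EC80 concentration; on the % scale 0 is the no-effect control and ±100 the full control effect; compound concentration not given in the record; the text of the record puts the active cut at -80%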
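TRPML1-DL cells, Tet-induced overnight (~16 h, 37 °C) at 1,500 cells/well, were loaded with Ca8 no-wash dye plus quencher for 45-90 min at room temperature. Compounds were pinned during FDSS kinetic reading; agonist 54-4 at EC80 (4 uM final) then added.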
D2 agonist – human D2 receptor agonism in beta-arrestin assay. P14416. DiscoveRx PathHunter D2 beta-arrestin, luminescence, 90 min; 100% = 57 uM dopamine signal. activation, % (no concentration beside the values). 360,000 tested, 0.084% active; in the data active = activation above about 40%; inconclusive = about 15% to 40%; inactive = below about 15%; further: compound concentration not given in the record; the text of the record calls up to 30% inactive
Target sequence (P14416 whole entry, looked up): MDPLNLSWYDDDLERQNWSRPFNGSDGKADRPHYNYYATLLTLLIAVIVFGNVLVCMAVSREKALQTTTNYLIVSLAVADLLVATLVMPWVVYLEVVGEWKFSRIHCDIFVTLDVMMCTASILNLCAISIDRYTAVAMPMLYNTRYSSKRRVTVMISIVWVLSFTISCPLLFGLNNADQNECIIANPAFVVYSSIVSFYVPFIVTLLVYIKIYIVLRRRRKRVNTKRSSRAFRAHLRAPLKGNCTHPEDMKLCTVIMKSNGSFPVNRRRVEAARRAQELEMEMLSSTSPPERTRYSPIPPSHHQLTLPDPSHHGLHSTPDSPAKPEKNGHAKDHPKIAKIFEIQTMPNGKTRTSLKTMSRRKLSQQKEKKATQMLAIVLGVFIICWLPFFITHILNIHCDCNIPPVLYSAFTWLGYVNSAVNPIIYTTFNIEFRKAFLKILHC
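Agonist mode: compounds alone added to overnight-plated D2 PathHunter cells for 90 min at 37 C, with 57 uM final dopamine (EC100) defining full response. Beta-arrestin recruitment detected by chemiluminescent reagent, read after 1 h at ambient temperature.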
TRPML1 ag – activates the human TRPML1 channel. Q9GZU1. TRPML1-expressing cells, Ca2+ dye fluorescence, FDSS; host cell line not named in the record; reference of the full effect not given here. activation, % (test concentration not listed). 410,000 tested, 0.12% active; in the data active = activation above about 50%; inconclusive = about 30% to 50%; inactive = below about 30%; further: 0% is about no effect; the text of the record puts the active cut at 80%
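Kinetic FDSS Ca2+ read in Tet-induced TRPML1-DL cells (ABD Ca8 dye plus quencher, 45-90 min RT loading): baseline, then compound, then 110 s agonist window; EC80 agonist 54-4 at 4uM final added afterwards for a 110 s antagonist window.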
An asterisk follows results filed as active; ? = inconclusive; . = no result given; [ ] = another dose, or the depositor's remark.

mol	CtBP-E1A blk	PINK1 modulator	Six1-Eya2 inh	TRPML1 blocker	D2 agonist	TRPML1 ag
O=C(COC(=O)c1ccc(Sc2ccccc2)c([N+](=O)[O-])c1)NC1CCCc2ccccc21 (stereo not drawn)	-2	-0.8%	0	-4	-0.8	0.1
CC1CCN(C(=O)c2cc(-c3ccc(Br)cc3)on2)CC1	.	3.1%	.	40	.	1.3
C/C(=N\NC(=O)CCc1c(C)n[nH]c1C)c1ccc([N+](=O)[O-])cc1	.	-0.3%	-3	13	-3.0	-0.6
C/C=C\C=C/C(=O)Nc1cccc(C2=NOC3(C2)C[C@H](C(N)=O)N(C(=O)Cc2ccc([N+](=O)[O-])cc2)C3)c1 (stereo partly drawn)	0	0.5%	-5	-6	-2.2	-0.3
CCOc1ccc(C2C(C(N)=O)=C(C)Nc3nc(-c4ccc(OC)cc4)nn32)cc1 (stereo not drawn)	.	-0.2%	.	5	.	-0.5
COc1ccc(NCc2nnc(SCC(=O)Nc3cc(C)cc(C)c3)o2)cc1	-8	2.1%	-17	15	0.3	-0.2
OC(CNC1CCCC1)COc1ccc(F)cc1 (stereo not drawn)	.	-0.6%	2	5	0.4	-0.7
Cc1cc(O)c(CN2CCN(S(=O)(=O)c3cccs3)CC2)cc1C(C)C	-11	3.3%	-13	4	-0.7	0.2
CCN(C(=O)COc1ccccc1)C1CCCCC1	0	0.4%	0	-9	-0.4	-0.2
CCOc1ccccc1NC(=O)C1CCCN(S(=O)(=O)c2cn(C)cn2)C1 (stereo not drawn)	.	-1.4%	.	14	.	0.8
Cc1cccc(Nc2cc(=O)n(C)c(=O)n2C)c1	-4	0.6%	1	-4	-0.3	-0.7
Cc1ccc(NC(=O)/C(=C\c2ccccc2)NC(=O)c2ccco2)cc1	6	-1.7%	4	-11	-2.7	-0.4
COc1ccc(OC)c(S(=O)(=O)N2CCC(C(=O)Nc3cccc(C)c3C)CC2)c1	5	0.0%	7	-1	1.2	0.4
Cc1ccc(Cn2cc(C(=O)c3ccc4c(c3)OCO4)c(=O)c3cc(C)ccc32)cc1	.	-1.0%	.	30	.	3.0
Cc1cc(C)cc(NS(=O)(=O)c2ccc3c(c2)C(C)(C)C(=O)N3C)c1	-14	1.7%	6	-5	-1.7	0.4
Cc1nonc1CC(=O)NC1CCCc2c1cnn2-c1ccc(F)cc1F (stereo not drawn)	2	-1.1%	8	9	-2.3	0.5
Cn1c(-c2cc(Br)ccc2O)n[nH]c1=S	54	.	8	7	-2.9	-0.2
CC(C)c1ccc2oc(-c3ccc(Cl)c(NC(=O)c4cccs4)c3)nc2c1	.	1.7%	.	4	.	1.8
CCN(CC)CCCn1c2c(c(SCC(=O)Nc3ccc(OC(F)(F)F)cc3)nc1=O)CCC2	0	2.6%	0	10	-6.4	0.0
CC(=O)Nc1nonc1NC(=O)c1ccc(C(C)(C)C)cc1	-2	3.0%[38.3 µM]	5	7	3.2	1.3

Next part; it opens with the five that closed the last part.
mol	CtBP-E1A blk	PINK1 modulator	Six1-Eya2 inh	TRPML1 blocker	D2 agonist	TRPML1 ag
Cc1nonc1CC(=O)NC1CCCc2c1cnn2-c1ccc(F)cc1F (stereo not drawn)	2	-1.1%	8	9	-2.3	0.5
Cn1c(-c2cc(Br)ccc2O)n[nH]c1=S	54	.	8	7	-2.9	-0.2
CC(C)c1ccc2oc(-c3ccc(Cl)c(NC(=O)c4cccs4)c3)nc2c1	.	1.7%	.	4	.	1.8
CCN(CC)CCCn1c2c(c(SCC(=O)Nc3ccc(OC(F)(F)F)cc3)nc1=O)CCC2	0	2.6%	0	10	-6.4	0.0
CC(=O)Nc1nonc1NC(=O)c1ccc(C(C)(C)C)cc1	-2	3.0%[38.3 µM]	5	7	3.2	1.3
Cc1nn(C)cc1/C=N/NC(=O)c1ccc2c(c1)OCO2	-2	4.7%	1	24	-3.1	0.4
CC(=O)Oc1ccc(-c2csc(Nc3ccc(Cl)cn3)n2)cc1	-7	11%	-2	15	-2.0	1.3
Cc1noc(C(=O)NCC2CCCO2)c1Cl (stereo not drawn)	.	0.1%	4	11	2.3	0.4
O=C1N=C(N2CCCC2C(=O)O)S/C1=C\c1ccco1 (stereo not drawn)	.	0.1%	-16	-5	3.9	-0.2
FC(F)(F)c1cccnc1Oc1ccc(C2=NCCS2)cc1	6	0.4%	13	-19	-1.0	12
COc1ccc(C2NC(=O)c3ccccc3N2)cc1OC (stereo not drawn)	-2	0.4%	-4	5	-6.0	-0.7
CCCCC/C=C/C1=CC(=O)C[C@H](c2ccc3c(c2)OCO3)C1	2	18%	5	-8	-3.2	1.6
Cc1c(C)c2ccc(Oc3ccc([N+](=O)[O-])cc3C(F)(F)F)c(C)c2oc1=O	2	0.7%	4	-4	-1.7	1.5
O=C(Nc1nc2ccsc2c(=O)s1)c1ccc(F)cc1	23	1.1%	11	-2	-0.4	0.1
Cc1c(C(C)O)nnn1-c1nonc1N (stereo not drawn)	1	0.0%	7	1	-3.5	-0.6
COC(=O)CSc1ccsc1C(=O)O	5	0.2%	5	-8	-1.8	0.4
COc1ccc(C(=O)NCCCNC(=O)c2cccnc2)cc1Br	-9	2.3%	-13	12	-5.5	-0.2
COc1ccc(CNC(=S)Nc2ccc3nc(N4CCN(C)CC4)cc(C)c3c2)cc1	-21	-0.9%	-14	32	0.4	1.0
O=C(CCl)Nc1ccccc1C(=O)NCc1ccccc1	9	0.3%	2	11	-1.4	3.4
O=C(OCC(=O)N1CCCCCC1)c1cnc(Cl)c(Cl)c1	-79*	3.0%	-21	-1	-1.8	0.6
Cc1ccc(NS(=O)(=O)c2cccc(C(=O)NCC3CCCO3)c2)cc1 (stereo not drawn)	-1	-1.7%	8	-2	-6.1	-0.4
COc1ccc(NC(=O)N(Cc2ccc(C)cc2)Cc2cccnc2)c(OC)c1	-4	1.8%	8	11	-3.9	0.8
Cc1onc(NC(=O)CSCC(=O)O)c1Br	-8	0.2%	4	11	1.8	0.9
CC(C)[C@H](NC(=O)N1CC(=O)Nc2ccccc21)C(=O)N[C@H](C(=O)O)c1ccccc1	-19	-0.5%	-5	-7	4.8	0.0
Cc1cc(S(=O)(=O)N2CCCCC2)ccc1OCC(=O)Nc1ccccc1	-2	5.3%	8	-9	-1.6	0.9

Gathered by group, the compounds so far with an NH in an aromatic ring.
mol	CtBP-E1A blk	PINK1 modulator	Six1-Eya2 inh	TRPML1 blocker	D2 agonist	TRPML1 ag
C/C(=N\NC(=O)CCc1c(C)n[nH]c1C)c1ccc([N+](=O)[O-])cc1	.	-0.3%	-3	13	-3.0	-0.6
Cn1c(-c2cc(Br)ccc2O)n[nH]c1=S	54	.	8	7	-2.9	-0.2

Going on with the list.
mol	CtBP-E1A blk	PINK1 modulator	Six1-Eya2 inh	TRPML1 blocker	D2 agonist	TRPML1 ag
COc1cc(/C=C2/SC(=S)N(CC(=O)Nc3cccnc3)C2=O)cc(OC)c1OC	-2	3.9%	-6	9	-2.1	1.1
CCc1ccc(CN(Cc2cn[nH]c2-c2ccc(OC)cc2)C(=O)Nc2ccc(Br)cc2)cc1	.	?	.	13	.	2.1
COc1ccc(NC(=O)C2CCCN2C(=O)NCc2ccccc2)cc1OC (stereo not drawn)	7	-1.6%	3	-1	0.7	3.4
CCOC(=O)c1c(NC(=O)CSc2nnnn2-c2ccc3c(c2)OCCO3)sc(C)c1C	8	.	-2	-8	0.4	0.0
O=C(COC(=O)Cn1cc(C(F)(F)F)ccc1=O)Nc1ccccc1	4	0.6%	2	-6	0.0	1.6
CCCCn1c(O)c(/C=C/C=C/C=Nc2ccccc2)sc1=S	0	-0.1%	-14	-16	-1.1	1.5
COc1cccc(N2CCN(C(=O)C3CCC(CNS(=O)(=O)c4ccc(Br)s4)CC3)CC2)c1 (stereo not drawn)	.	5.9%	.	39	.	2.8
COc1ccc(OC)c(CCNC(=O)c2cc3c(s2)-c2c(C)cccc2OC3)c1	.	7.9%	.	-5	.	-0.4
O=C(O)c1ccc(NN=CC2=C(N3CCOCC3)/C(=C/c3ccccc3)CC2)cc1	0	?	1	17	?	14
CCc1ccccc1NC(=O)C1C(c2ccccc2)C1(Cl)Cl (stereo not drawn)	3	0.5%	9	4	-1.7	3.0
C/C(=N\Nc1ccc(S(=O)(=O)Nc2ccc(Cl)cc2)cc1[N+](=O)[O-])c1ccc(N2CCOCC2)cc1	-19	1.2%	-18	-5	2.9	0.4
COc1ccc(NC(=O)Cn2c(=O)n(-c3ccc(Cl)cc3)c(=O)c3c(C)c(C(=O)N(C)C)sc32)cc1Cl	.	0.8%	.	-13	.	0.8
CCC(Cc1ccccc1)NC(=O)Cn1nc(C)n2c(cc3occc32)c1=O (stereo not drawn)	.	1.9%	.	-12	.	-1.3
COc1ccc(CCNC(=O)C2CCN(c3nccc(C)n3)CC2)cc1	.	-1.8%	-12	36	?	0.6
COc1ccc(OCCOCC(O)CN2CCOCC2)cc1 (stereo not drawn)	4	-0.3%	0	4	-2.5	-0.1
Cc1cc(C)c2cc(C=O)c(Cl)nc2c1	8	12%	-4	9	-2.8	-0.3

Bioassay records deposited in PubChem by National Center for Advancing Translational Sciences (NCATS).

This is a random part of the collection; about 1% have a hit in one of these screens.
